BmaI1 = BmaI1 acyl-homoserine lactone synthase inhibition – biochemical, fluorescence intensity, with counterscreen (AID 720554) | inhibition, % | actives 0.4% (n = 12,000) | BmaI1 enzyme assay, fluorescence intensity; hits give high values; test concentration not given here; a few actives read low; strong numbers were not always called active;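 active = both replicates within 2 robust z-scores of the inhibited control and a quiet counterscreen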;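 also: 0% = uninhibited enzyme and 100% = inhibited control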
BmaI1 counterscreen = also measured in BmaI1; calls as there; inhibition, %; measured here: counterscreen; design of the counterscreen not given here;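 first of two replicates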
Numbers without * were called inactive. Some of the compounds tested; rates above refer to the full screens.

SMILES | BmaI1 | BmaI1 counterscreen
CCN(C(=O)CSc1nc2nc(C)cc(C)n2n1)C1CCS(=O)(=O)C1 (centres undefined) | 8 | 4
CCC(C)(C)NC(=O)c1ccc2ncsc2c1 | 8 | 0
Cc1cc(C(=O)CSc2nccn2-c2cccc(F)c2)c(C)n1-c1ncn[nH]1 | 4 | 6
NC(=O)c1ccccc1OCC(=O)NCC(F)(F)F | 15 | 10
CCc1ccc(CCC(=O)O)cc1 | 14 | 10
CN(CC(=O)Nc1ccc(F)c(F)c1F)C(=O)C1COc2ccccc2O1 (centres undefined) | 10 | 8
CCn1nc(C(=O)NC2CCCc3ccccc32)c2ccccc2c1=O (centres undefined) | 12 | 4
O=c1[nH]c(CN2CCC(Cc3ccccc3)CC2)nc2scc(-c3cccs3)c12 | 8 | -1
COc1ccc(C(=O)NC(=O)CSc2n[nH]c(N)n2)cc1 | -8 | 4
Cc1ccc(C(=O)c2c(NC(=O)CSc3nnnn3C)sc3c2CCCC3)cc1 | -2 | 8
CN(CC(=O)Nc1ccc(Cl)c(Cl)c1)CC(=O)Nc1ccc2[nH]c(=O)[nH]c2c1 | 42 | 16
COC(=O)C(C#N)=C(SC)SC | 52 | 1
O=C(Cn1ncc(Cl)c(Cl)c1=O)c1ccc(S(=O)(=O)N2CCCC2)cc1 | 14 | 10
O=C(CSc1nnc(SCC(=O)NC2CC2)s1)NC1CC1 | 0 | -6
COC(=O)Nc1ccccc1 | 4 | 2
Oc1ccc(-n2nnnc2SCc2ccc(-n3ccnc3)cc2)cc1 | 24 | 19
CCN(CC1COc2ccccc2O1)C(=O)c1cnccn1 (centres undefined) | 8 | 11
CCN(c1ccccc1)S(=O)(=O)c1ccc(C(=O)N2CCN(c3ncccn3)CC2)cc1 | -18 | 0
CCSc1nc2nn(-c3ccccc3)c(=O)c-2c2n1CCCCC2 | 8 | 6
CN1CCCN(C(=O)Nc2ccc(F)cc2)c2nc3ccccc3nc21 | 22 | 8
O=C(/C=C/c1cn(-c2ccccc2)nc1-c1cc2ccccc2o1)OCC(=O)c1ccc[nH]1 | 2 | -2
CN(CC(=O)Nc1ccc2c(c1)OC1(CCCCC1)O2)C1CCCCC1 | 22 | 9
Cc1noc(C)c1COc1ccc(C(=O)OCCN2C(=O)c3ccccc3C2=O)cc1 | 40 | 9
CCOC(=O)c1[nH]c(COC(=O)c2ccccc2NC(=O)c2ccco2)c(C(=O)OCC)c1C | 17 | 12
CC(C)(C)c1csc(-c2ccc(O)cc2)n1 | 20 | 10
Cc1cc(Cl)c(CC(=O)O)c(Cl)n1 | 10 | 6
Nc1cc(C(F)(F)F)ccc1-n1ccnc1 | 2 | 11
CC(C(=O)OCC(=O)c1ccc[nH]1)N1C(=O)c2ccccc2C1=O (centres undefined) | 8 | 8
O=C(CSc1nc2ccccc2o1)c1cc2ccccc2o1 | 14 | 14
CCCCn1c(N)c(N(C)C(=O)c2ccc(NC(=O)CSc3nnnn3C)cc2)c(=O)[nH]c1=O | 10 | 2
CC(C)Cn1c(O)c(NC(=O)N=N)c2ccccc21 | 20 | 5
NS(=O)(=O)c1ccc(CNC(=O)c2ccccn2)cc1 | 10 | 10
COc1cc(N)c(Cl)cc1C(=O)NC1CN2CCC1CC2 (centres undefined) | 6 | 15
Cc1sc2nc(CN3CCOCC3)nc(NC(C)C)c2c1C | 6 | 3
COc1ccccc1NC(=O)Cc1nc(CN2CC(C)OC(C)C2)cs1 (centres undefined) | 21 | 2
CCCCNc1nc2ccccc2n1CC(=O)Nc1ccc(S(=O)(=O)N2CCCC2)cc1 | 21 | 10
N#Cc1ccc(CN(c2ccncc2)S(=O)(=O)c2ccccc2)cc1 | 4 | 4
CCOC(=O)c1oc2ccccc2c1COC(=O)c1c(C)nn(-c2ccc(F)cc2)c1Cl | 8 | 0
CC(C)C(=O)N1CCN(S(=O)(=O)c2ccc(F)cc2)CC1 | -1 | 4
Cc1ccc(C(=O)COC(=O)c2cc(C)oc2C)cc1 | 2 | 0

The list goes on; it opens with the six that closed the last part.
SMILES | BmaI1 | BmaI1 counterscreen
COc1ccccc1NC(=O)Cc1nc(CN2CC(C)OC(C)C2)cs1 (centres undefined) | 21 | 2
CCCCNc1nc2ccccc2n1CC(=O)Nc1ccc(S(=O)(=O)N2CCCC2)cc1 | 21 | 10
N#Cc1ccc(CN(c2ccncc2)S(=O)(=O)c2ccccc2)cc1 | 4 | 4
CCOC(=O)c1oc2ccccc2c1COC(=O)c1c(C)nn(-c2ccc(F)cc2)c1Cl | 8 | 0
CC(C)C(=O)N1CCN(S(=O)(=O)c2ccc(F)cc2)CC1 | -1 | 4
Cc1ccc(C(=O)COC(=O)c2cc(C)oc2C)cc1 | 2 | 0
COc1cc(/C=C(\C#N)C(=O)NC2CCCCC2)cc(OC)c1O | 36 | -46
CC(C)(C)C1=NN(C(=O)c2cccc(S(=O)(=O)N3CCOCC3)c2)C(=O)C1 | 4 | -6
O=C(O)c1cccnc1 | 2 | 9
CC(=O)Nc1ccc(OCc2nnc(C)o2)cc1 | 22 | 5
O=C(NCc1ccc2c(c1)OCO2)c1ccncc1 | -6 | -8
COc1ccc(NCc2cc(=O)oc3cc(NC(C)=O)ccc23)cc1 | 5 | 6
N#CCCn1c(SCc2ccc(C#N)cc2)nc2ccccc21 | -2 | 5
CC(C)NC(=O)CSc1nnc(N)s1 | 8 | 3
Cc1ccc(S(=O)(=O)N(CCC(=O)N2CCOCC2)c2ccccc2)cc1 | -4 | 0
Cc1ccc(C(=O)C(O)c2ccc(C)cc2)cc1 (centres undefined) | 14 | 11
Clc1ccc(CON=C(Cn2ccnc2)c2ccc(Cl)cc2Cl)c(Cl)c1 | 2 | 2
CC(=O)Nc1ccc(S(=O)(=O)N(C)CC(=O)N2CCN(C(=O)c3ccco3)CC2)cc1 | -14 | -7
O=C(CSC1=N/C(=C\c2ccc(F)cc2)C(=O)N1Cc1ccco1)N1CCCC1 | 0 | -2
Cc1noc(C)c1COc1cc2ccccc2cc1C(=O)OCc1cc(=O)n2c(C)csc2n1 | -6 | -12
C/C(N)=C(/C#N)C(=O)CSc1cc(Cl)ccc1Cl | 18 | 14
O=C(O)CCN1C(=O)Cc2ccccc2C1=O | 76 | 42
O=C(c1cc(=O)c2ccccc2o1)N1CCN(S(=O)(=O)/C=C/c2ccccc2)CC1 | 10 | 13
CC(C)CN(CC(C)C)C(=O)Cn1nc(C(=O)O)c2ccccc2c1=O | 12 | 2
CC(SC1=NS(=O)(=O)c2ccccc21)C(=O)O (centres undefined) | 40 | 18
Cc1ccccc1Nc1nc(N)nc(CSc2nnc(Cc3ccccc3)o2)n1 | -2 | 0
CC(C)CCNC(=O)c1nn(-c2ccccc2)c(=O)c2ccccc12 | 7 | 6
Cc1cc(OC(=O)/C=C/c2ccc(F)cc2)cc(=O)o1 | 44 | 12
CC1CCCC(C)N1C(=O)COC(=O)/C=C/c1cccs1 (centres undefined) | 10 | 9
Cc1c(-c2ccccc2)oc2c(C(=O)N3CCC(=O)CC3)cccc2c1=O | 8 | 2
CC(=O)N(C)c1c(C)n(C)n(-c2ccccc2)c1=O | 10 | -4
COc1ccccc1CNC(=O)COC(=O)c1ccncc1 | 16 | 9
C=C(C)CN(CC)C(=O)CSc1nc2ncc(Cl)cc2[nH]1 | 9 | 5
CC(C)N(CC(N)=O)C(=O)COc1ccccc1C#N | 14 | 12
O=C(COC(=O)c1cc(=O)[nH]c(=O)[nH]1)NCc1ccccc1 | 14 | 13
COCCn1c(N)c(NCc2ccccc2)c(=O)n(CC(=O)NCCc2ccc(OC)c(OC)c2)c1=O | 4 | 5
O=C(O)c1ccc(-c2ccc3c(c2)OCCO3)s1 | 17 | 8
O=C(N/N=C/c1ccc(OC(F)F)cc1)C1=COCCO1 | 12 | 7
CC1C/C(=N\NC(=O)c2ccccc2)CC(C)(C)C1 (centres undefined) | 10 | 25
COC(=O)c1ccc(CSc2nnc3n(Cc4ccc(C)cc4)c(=O)c4ccccc4n23)o1 | -7 | -8
O=C(N(c1ccccn1)c1ccccn1)C12CC3CC(CC(C3)C1)C2 | 13 | 4
CN(CCOc1ccccc1Cl)Cc1ccccc1 | 8 | 8
CCOc1cc2c(cc1CNC(=O)C1CC1)OC(C)C2 (centres undefined) | 10 | 4
Cc1noc(C)c1CSc1ccccc1C(=O)OCC(=O)NC1(C#N)CCCCC1 | 22 | 12
O=C1COc2ccc(C(=O)CSC(=S)N3CCCC3)cc2N1 | 22 | 12
Cc1[nH]c2ccccc2c1-c1nc2ccccc2[nH]c1=O | 9 | -4

Three entries drawn at random from the list so far:
SMILES | BmaI1 | BmaI1 counterscreen
Cc1cc(OC(=O)/C=C/c2ccc(F)cc2)cc(=O)o1 | 44 | 12
CC(C)CCNC(=O)c1nn(-c2ccccc2)c(=O)c2ccccc12 | 7 | 6
CC1C/C(=N\NC(=O)c2ccccc2)CC(C)(C)C1 (centres undefined) | 10 | 25

Some of these compounds in order of heavy-atom count, highest first.
SMILES | BmaI1 | BmaI1 counterscreen
O=C1COc2ccc(C(=O)CSC(=S)N3CCCC3)cc2N1 | 22 | 12
CC1CCCC(C)N1C(=O)COC(=O)/C=C/c1cccs1 (centres undefined) | 10 | 9
CC(=O)N(C)c1c(C)n(C)n(-c2ccccc2)c1=O | 10 | -4

Remaining list, next part.
SMILES | BmaI1 | BmaI1 counterscreen
CC(=O)OCC(=O)[C@@]1(O)CC[C@H]2[C@@H]3CCC4=CC(=O)CC[C@]4(C)[C@H]3C(=O)C[C@@]21C | 10 | 19
COc1ccc(S(=O)(=O)N2CCCCCC2)cc1C(=O)NC1CCCCC1 | 4 | -4
CC(=O)Oc1ccccc1C(=O)Nc1ncc([N+](=O)[O-])s1 | 17 | 15
O=c1[nH]c(=O)n(S(=O)(=O)c2ccc(F)cc2)cc1F | 1 | -2
CCc1ccc(NC(=O)COC(=O)CC2(CC(=O)N3CCOCC3)CCCCC2)cc1 | 10 | -2
COc1ccccc1NS(=O)(=O)c1ccc2oc(SCC(=O)c3ccc4c(c3)NC(=O)CO4)nc2c1 | 5 | 4
CCn1c(CN2CCCCCC2=O)nnc1SC(C)c1nc2ccccc2c(=O)[nH]1 (centres undefined) | 6 | 7
CN(C)S(=O)(=O)c1cccc(C(=O)NC2=NCCS2)c1 | 0 | 0
CN(C)S(=O)(=O)c1cccc(-c2nnc3n2CCCCC3)c1 | -4 | -2
O=C(N/N=C/c1cccnc1)c1nc2ccccc2c(=O)[nH]1 | 6 | 1
CCN(CC)S(=O)(=O)c1ccc(NC2CCN(Cc3ccccc3)CC2)nc1 | -5 | -2
COc1ccc(C2=NN(C(=O)COc3ccccc3C(N)=O)C(c3ccco3)C2)cc1 (centres undefined) | 12 | 6
O=C(COC(=O)CCc1c[nH]c2ccccc12)Nc1cccc2nsnc12 | 20 | 10
O=C(Cc1ccccc1)NCc1cccs1 | 15 | 10
C[C@H]1COc2c(C3(N)CC3)c(F)cc3c(=O)c(C(=O)O)cn1c23 | -13 | -4
COCCn1c(C)cc(/C=N/n2c(C)nc3ccccc3c2=O)c1C | -1 | -11
Cc1ccccc1CN | 8 | -2
Nc1ccc(-c2ccccc2)cc1 | 58 | 65
CCCCn1ccnc1C(=O)c1ccc(S(=O)(=O)N2CCCC2)cc1 | 8 | 1
CN(C)CCOC(c1ccc(Cl)cc1)c1ccccn1 (centres undefined) | -1 | 2
CCOCc1c(C(=O)N(CC)Cc2ccc3c(c2)OCCO3)oc2ccccc12 | 0 | -4
Cc1cc(C)c2c(NS(=O)(=O)c3ccc(Cl)cc3)n[nH]c2n1 | 59 | 66
CC(NC(=O)CSc1n[nH]c(=O)n1C1CC1)C12CC3CC(CC(C3)C1)C2 (centres undefined) | 12 | 2
S=c1nn[nH]n1C1CCCCCCC1 | 39 | 10
CN1CCC(N(C)C(=O)CNC(=O)c2ccc(C(C)(C)C)cc2)CC1 | 13 | 14
CC(=O)Nc1ccc2c(COC(=O)c3ccc(-n4cnnn4)cc3)cc(=O)oc2c1 | 32 | -3
CCN(CC(=O)NCc1ccc(Cl)cc1)Cc1nnc(-c2ccc(F)cc2)o1 | -8 | -9
CC(SC1=N/C(=C\c2ccco2)C(=O)N1c1ccc(OC(F)F)cc1)C(=O)NCc1ccc2c(c1)OCO2 (centres undefined) | 14 | 10
CCOC(=O)C1=C(C)NC(C)=C(C(=O)OCC)C1C(=O)OC(C)C(=O)Nc1ccc(S(=O)(=O)N2CCCC2)cc1 (centres undefined) | -1 | 3
CC(C)C(Sc1nnc(C(F)(F)F)n1C)C(=O)NC(N)=O (centres undefined) | 6 | 8
CC1=C/C(=N\NC(=O)c2ccccc2)CC1 | 10 | 6
C1CCC(c2nnc3n2N=C2CCCCC2S3)CC1 (centres undefined) | 4 | 4
Cn1cnc([N+](=O)[O-])c1Sc1ncnc2nc[nH]c12 | -2 | 11
CCOC(=O)C1=C(CSc2nc3sc4c(c3c(=O)n2C)CCC4)NC(=O)NC1C (centres undefined) | 7 | 4
COc1ccc(COC(=O)c2cc(O)c3ccccc3c2O)cc1F | 84* | 20*
Cc1cc(C)n(CCCNC(=O)CCc2ccc(S(=O)(=O)N3CCOCC3)cc2)n1 | 3 | 0
CC(c1nnc(SCC(=O)N2CC(=O)Nc3ccccc32)n1Cc1ccccc1)N(C)C (centres undefined) | 20 | 13
COCc1c(C(=O)N2CCN(S(=O)(=O)c3cccs3)CC2)oc2ccccc12 | 8 | 2
COCC(C)NC(N)=O (centres undefined) | 4 | 4
COc1ccc(NC(=O)C(C)NC(=O)c2ccco2)cc1NS(=O)(=O)c1ccc(F)cc1 (centres undefined) | 16 | 10
CN1C(C/C(=N\NC(N)=O)c2ccccc2)CCCC1CC(O)c1ccccc1 (centres undefined) | 36 | 12
CN(CCOc1ccc(Cl)cc1)CN1C(=O)C2CC=CCC2C1=O (centres undefined) | 6 | 2
O=C(N/N=C/c1ccc(N2CCOCC2)cc1)c1cccs1 | 24 | 28
